Screening data from PubChem.
Vaccinia stage = blocks a specific stage of Vaccinia orthopoxvirus infection | AID 1053133 | Vaccinia-infected cells, mCherry/Venus stage reporter fluorescence; stronger effect = lower value; some inactives read as strong as hits | actives 0.01% (n = 89,000) | activity change (mCherry), % (test concentration not listed);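 active = mCherry past -33% and 40 or more points under the early reporter, replicates agreeing; inconclusive = past -33% without that gap or agreement; tested in A549 cells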;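 note: scaled between vehicle wells and reference inhibitor wells; 23 nL library stock went into each well; one replicate is shown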
Vaccinia stage Venus = further read-out of Vaccinia stage, marked with its call; activity change (Venus), %; measured here: Venus reporter, other viral stage;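 negative = less Venus signal; first of two replicates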
Active calls of the source: *; u = inconclusive; x = not tested or not shown; & = joins results of further samples. A portion of the library; rates above refer to the full screens.

Every second line gives: Vaccinia stage	Vaccinia stage Venus
1. COC(=O)[C@@H]1[C@@H](CO)[C@@H]2Cn3c(ccc(-c4ccccc4F)c3=O)[C@@H]2N1C(=O)c1cnccn1
  -1	4
2. C[C@H](CO)N1C[C@H](C)[C@H](CN(C)S(=O)(=O)c2ccc(F)cc2)Oc2c(NC(=O)c3nc4ccccc4s3)cccc2C1=O
  -1	12
3. COCC(=O)N(C)C[C@@H]1[C@H](c2ccc(-c3ccccc3)cc2)[C@@H](CO)N1C(C)=O
  -13	-7
4. C[C@@H]1CN([C@H](C)CO)C(=O)CCCn2cc(nn2)CO[C@H]1CN(C)S(C)(=O)=O
  14&0	4&3
5. Cc1ccc(S(=O)(=O)Nc2ccc3c(c2)C(=O)N([C@H](C)CO)C[C@H](C)[C@@H](CN(C)Cc2ccncc2)OCCCC[C@@H](C)O3)cc1
  15	-4
6. COc1cccc(-c2ccc([C@@H]3[C@@H](C#N)N(C(=O)Cc4ccncc4)[C@@H]3CO)cc2)c1
  -26	-21
7. Cc1noc(C)c1S(=O)(=O)Nc1ccc2c(c1)CC(=O)N([C@@H](C)CO)C[C@@H](C)[C@H](CN(C)C(=O)NC1CCCCC1)O2
  -14	-16
8. O=C(CN1CCOCC1)NCC[C@@H]1CC[C@H](NC(=O)c2ccc3c(c2)OCO3)[C@H](CO)O1
  0	7
9. O=C(C[C@H]1CC[C@@H]2[C@H](COC[C@H](O)CN2C(=O)Nc2cccc(Cl)c2)O1)N1CCCCC1
  -16	-18
10. Cc1cccc(S(=O)(=O)N[C@H]2CC[C@@H](CCNS(=O)(=O)c3ccccc3F)O[C@@H]2CO)c1
  -27	-22
11. C[C@@H]1CN([C@@H](C)CO)C(=O)c2cccc(NC(=O)c3nc4ccccc4s3)c2O[C@@H]1CN(C)CC1CCCCC1
  u	x
12. C[C@@H]1CCCCO[C@@H](CN(C)C(=O)C2CCCCC2)[C@H](C)CN([C@H](C)CO)C(=O)c2cc(NC(=O)Nc3ccc(C(F)(F)F)cc3)ccc2O1
  u	x
13. CC(C)NC(=O)Nc1cccc2c1O[C@@H](CN(C)S(C)(=O)=O)[C@@H](C)CN([C@H](C)CO)C2=O
  7	-5
14. C[C@@H](O)C#Cc1cnc2c(c1)C(=O)N([C@@H](C)CO)C[C@H](C)[C@@H](CN(C)CC1CCOCC1)O2
  19	7
15. C[C@H](CO)N1C[C@H](C)[C@@H](CN(C)Cc2ccc(C(F)(F)F)cc2)Oc2c(NC(=O)NC3CCCCC3)cccc2C1=O
  -27	-25

Taken from above:
compound 5 in Vaccinia stage Venus → -4
compound 7 in Vaccinia stage → -14
compound 8 in Vaccinia stage Venus → 7
compound 13 in Vaccinia stage Venus → -5
compound 3 in Vaccinia stage → -13
compound 4 in Vaccinia stage → 14&0

(further entries)
Every second line gives: Vaccinia stage	Vaccinia stage Venus
16. C[C@H](CO)N1C[C@H](C)[C@H](CN(C)C(=O)Cc2ccccc2)OCCCC[C@H](C)Oc2ccc(NC(=O)Nc3ccccc3)cc2C1=O
  -22	-19
17. O=C(C[C@@H]1C[C@H]2c3cc(NC(=O)Nc4ccccc4F)ccc3O[C@H]2[C@@H](CO)O1)NC1CCCC1
  9	6
18. COc1ccc(CN(C)C[C@@H]2OCCCC[C@@H](C)Oc3ccc(NS(C)(=O)=O)cc3C(=O)N([C@@H](C)CO)C[C@H]2C)cc1
  14	17
19. O=C(C[C@@H]1CC[C@@H]2[C@H](COC[C@H](O)CN2Cc2ccccc2)O1)NCCCN1CCOCC1
  8	6
20. CNC[C@@H]1Oc2ncc(-c3cc4ccccc4o3)cc2C(=O)N([C@H](C)CO)C[C@@H]1C
  u	x
21. O=C(c1ccccc1F)N1C[C@@H]2[C@H](c3ccccc31)[C@@H](CO)N2C(=O)C1CCCC1
  16	9
22. C[C@@H]1CN([C@H](C)CO)C(=O)c2cc(C#C[C@@H](C)O)cnc2O[C@H]1CN(C)Cc1ccc(-c2ccccc2)cc1
  -24	-15
23. Cc1ccc(S(=O)(=O)N[C@@H]2CC[C@@H](CCNS(=O)(=O)Cc3ccccc3)O[C@@H]2CO)cc1
  9	11
24. Cc1noc(C)c1NC(=O)N[C@@H]1CC[C@@H](CC(=O)N2CCCCC2)O[C@@H]1CO
  2	1
25. CS(=O)(=O)N1C[C@H](O)COC[C@@H]2O[C@H](CC(=O)NCc3ccc(-c4ccccc4)cc3)CC[C@H]21
  -7	-4
26. C[C@@H]1CCCCO[C@H](CN(C)Cc2ccncc2)[C@H](C)CN([C@H](C)CO)C(=O)c2cc(NC(=O)Nc3cccc4ccccc34)ccc2O1
  -18	-19
27. C[C@H]1CN([C@@H](C)CO)C(=O)c2cccc(NC(=O)C3CC3)c2O[C@@H]1CN(C)Cc1ccc2c(c1)OCO2
  6	-2
28. COCC(=O)Nc1ccc2c(c1)[C@@H]1C[C@H](CC(=O)NCc3ccccn3)O[C@@H](CO)[C@@H]1O2
  u	x
29. CCC(=O)N1CCCCN2[C@H](CO)[C@@H](c3ccc(/C=C/c4ccccc4)cc3)[C@@H]2C1
  u	x
30. COCC(=O)N1[C@H](C#N)[C@H](c2ccccc2-c2ccc(C)cc2)[C@H]1CO
  8	-2
31. CC(C)NC(=O)Nc1ccc2c(c1)C(=O)N([C@H](C)CO)C[C@H](C)[C@@H](CN(C)CC1CCCCC1)O2
  2	-3
32. C[C@H](CO)N1C[C@H](C)[C@@H](CN(C)C(=O)NC2CCCCC2)Oc2ccc(NC(=O)Nc3ccc4c(c3)OCO4)cc2CC1=O
  8	0
33. O=C(Cc1ccccn1)N1[C@@H]2CNc3ccccc3[C@@H]2[C@@H]1CO
  11	11
34. COc1cccc(CN2[C@H](CO)[C@@H](c3ccccc3)C23CN(C(=O)C2CC2)C3)c1
  6	10
35. C[C@H](CO)N1C[C@H](C)[C@@H](CN(C)C(=O)C2CCOCC2)Oc2ncc(/C=C/c3ccccc3)cc2C1=O
  4	1
36. CO[C@@H]1CN(C)C(=O)c2ccc(NC(=O)NC(C)C)cc2OC[C@@H](C)N(C)C[C@@H]1C
  3	0
37. O=C(Cc1ccccn1)N1CC(=O)N2[C@H](CO)[C@H](c3ccc(-c4ccc(F)cc4)cc3)[C@@H]2C1
  -3	-2
38. O=C(Nc1cccc(F)c1)N[C@@H]1CC[C@@H](CCNS(=O)(=O)c2cccc(Cl)c2)O[C@H]1CO
  -33	-15
39. COc1ccccc1S(=O)(=O)N(C)C[C@H]1OCc2cn(nn2)CCCC(=O)N([C@@H](C)CO)C[C@H]1C
  0	-4
40. CC(C)NC(=O)N[C@H]1CC[C@@H](CCN)O[C@H]1CO
  7	4
41. O=C(CN1CCOCC1)N1CCCCN2[C@H](C1)[C@H](c1ccc(C#Cc3ccccc3)cc1)[C@@H]2CO
  u	x
42. C[C@H](CO)N1C[C@H](C)[C@@H](CN(C)C(=O)NC2CCCCC2)Oc2c(NC(=O)c3cnccn3)cccc2C1=O
  -4	-3
43. COc1ccc(NC(=O)N[C@@H]2CC[C@H](CC(=O)NCc3ccccn3)O[C@@H]2CO)cc1
  8	12
44. C[C@@H]1CCCCO[C@@H](CN(C)Cc2ccc(C(=O)Nc3ccccc3N)cc2)[C@@H](C)CN([C@H](C)CO)C(=O)c2cc(NC(=O)Nc3ccc(C(F)(F)F)cc3)ccc2O1
  10	5
45. CO[C@@H](CN(C)Cc1cc(F)ccc1F)[C@H](C)CN(C(=O)Nc1ccc(F)cc1)[C@H](C)CO
  3	4

Some of these compounds in order of SMILES length, highest first.
Every second line gives: Vaccinia stage	Vaccinia stage Venus
44. C[C@@H]1CCCCO[C@@H](CN(C)Cc2ccc(C(=O)Nc3ccccc3N)cc2)[C@@H](C)CN([C@H](C)CO)C(=O)c2cc(NC(=O)Nc3ccc(C(F)(F)F)cc3)ccc2O1
  10	5
32. C[C@H](CO)N1C[C@H](C)[C@@H](CN(C)C(=O)NC2CCCCC2)Oc2ccc(NC(=O)Nc3ccc4c(c3)OCO4)cc2CC1=O
  8	0
35. C[C@H](CO)N1C[C@H](C)[C@@H](CN(C)C(=O)C2CCOCC2)Oc2ncc(/C=C/c3ccccc3)cc2C1=O
  4	1
36. CO[C@@H]1CN(C)C(=O)c2ccc(NC(=O)NC(C)C)cc2OC[C@@H](C)N(C)C[C@@H]1C
  3	0

Carrying on.
Every second line gives: Vaccinia stage	Vaccinia stage Venus
46. CN(C)CCCN1C(=O)[C@@]2(Cc3ccccc31)c1ccccc1C(=O)N(Cc1ccccc1Cl)[C@H]2c1ccc(CO)cc1
  7	5
47. CCCNC(=O)N1CCC2(CC1)CN(C(=O)NC1CCCC1)[C@H](CO)c1[nH]c3cc(OC)ccc3c12
  1	1
48. C[C@@H]1CN([C@@H](C)CO)S(=O)(=O)c2ccc(/C=C/c3ccccc3)cc2O[C@H]1CN(C)C(=O)c1ccncc1
  -24	-15
49. COc1ccc2c3c(n(C)c2c1)[C@@H](CO)N(C(=O)Nc1ccc(F)cc1)CC31CCN(C(=O)Nc2c(C)noc2C)CC1
  21	8
50. C[C@@H]1CN([C@H](C)CO)S(=O)(=O)c2ccc(/C=C/c3ccccc3)cc2O[C@H]1CN(C)C(=O)CN1CCOCC1
  -14	-12
51. COc1ccc(S(=O)(=O)Nc2ccc3c(c2)C(=O)N([C@@H](C)CO)C[C@@H](C)[C@H](CN(C)S(=O)(=O)c2ccc(F)cc2)OCCCC[C@H](C)O3)cc1
  -25	-25
52. C[C@H]1CN([C@@H](C)CO)S(=O)(=O)c2ccc(C#Cc3ccc(F)cc3)cc2O[C@@H]1CN(C)S(C)(=O)=O
  u	x
53. CCN1[C@@H]2Cn3c(ccc(C4=CCCC4)c3=O)[C@H]1[C@@H](C(=O)N[C@@H](C)c1ccccc1)[C@@H]2CO
  -8	4
54. CC(C)C(=O)Nc1ccc2c(c1)C(=O)N(C)[C@@H]1CC[C@H](CC(=O)NCc3ccc(F)cc3)O[C@H]1CO2
  5	3
55. O=C(C[C@H]1C=C[C@@H](NC(=O)c2ccncc2)[C@@H](CO)O1)NCCc1ccncc1
  7	10
56. C[C@@H]1CCCCO[C@H](CN(C)Cc2ccncc2)[C@H](C)CN([C@@H](C)CO)C(=O)c2cc(NC(=O)C3CCCCC3)ccc2O1
  u	x
57. N#Cc1cccc(-c2ccc([C@@H]3[C@@H](CO)N4CCCCN(C(=O)Cc5ccccc5)C[C@H]34)cc2)c1
  -23	-13
58. C[C@H]1CN([C@@H](C)CO)S(=O)(=O)c2ccc(-c3ccc(C(=O)N(C)C)cc3)cc2O[C@@H]1CN(C)Cc1ccccc1C(=O)O
  13	1
59. C[C@H]1CN([C@@H](C)CO)S(=O)(=O)c2ccc(C#Cc3ccccn3)cc2O[C@@H]1CN(C)Cc1ccccc1
  -16	-8
60. CC(C)C#Cc1ccc([C@@H]2[C@H](C#N)N(C(=O)C3CCC3)[C@H]2CO)cc1
  -24	-15
61. COc1ccc(NC(=O)Nc2ccc3c(c2)C(=O)N([C@H](C)CO)C[C@H](C)[C@@H](CN(C)S(=O)(=O)c2ccc(F)cc2)O3)cc1
  6	0
62. Cc1cccc(S(=O)(=O)N2C[C@@H]3N[C@H](C2)C3c2ccc(-c3cccc(C(=O)N(C)C)c3)cc2)c1 (stereo not given in full)
  u	-2
63. CC(=O)N1[C@@H]2Cn3c(cccc3=O)[C@H]1[C@@H](C(=O)NCC1CCCCC1)[C@@H]2CO
  -1	5
64. O=C(C[C@H]1C[C@H]2c3cc(NC(=O)c4cccnc4)ccc3O[C@H]2[C@H](CO)O1)NCc1cc(F)ccc1F
  1	12
65. Cc1ccc(-c2ccc3c(c2)O[C@H](CN(C)S(C)(=O)=O)[C@@H](C)CN([C@@H](C)CO)S3(=O)=O)cc1
  u	x
66. C[C@H](CO)N1C[C@H](C)[C@H](CN(C)C(=O)Nc2ccc3c(c2)OCO3)Oc2ccc(NC(=O)Cn3cnnn3)cc2CC1=O
  12	6
67. O=C(NCc1cccc(F)c1)[C@H]1[C@H](CO)[C@H]2Cn3c(ccc(-c4ccncc4)c3=O)[C@@H]1N2CC1CC1
  19	15
68. C[C@H](CO)N1C[C@H](C)[C@H](CN(C)Cc2ccc3c(c2)OCCN3C)OCc2ccccc2-c2c(n(C)c3ccccc23)C1=O
  -29	-37
69. O=C(Cc1ccccc1)N1C[C@H]2[C@@H](c3ccccc31)[C@H](CO)N2C(=O)c1ccc(F)cc1
  1	4
70. Cc1noc(C)c1NC(=O)N(C)C[C@H]1Oc2ccc(NS(=O)(=O)c3ccccc3)cc2CC(=O)N([C@@H](C)CO)C[C@H]1C
  11	4
71. C[C@H](CO)N1C[C@H](C)[C@H](CN(C)C(=O)C2CCCCC2)OCCCC[C@H](C)Oc2ccc(NC(=O)Nc3ccc(F)cc3)cc2C1=O
  -16	-13
72. CCCN(C)C[C@@H]1Oc2ncc(C#Cc3cccc(OC)c3)cc2C(=O)N([C@H](C)CO)C[C@@H]1C
  -21	-24
73. Cc1noc(C)c1NC(=O)Nc1ccc2c(c1)C(=O)N([C@H](C)CO)C[C@H](C)[C@@H](CN(C)Cc1ccc(C(F)(F)F)cc1)OCCCC[C@H](C)O2
  u	x

Whole records from above. Order of screens: Vaccinia stage | Vaccinia stage Venus
`Cc1cccc(S(=O)(=O)N2C[C@@H]3N[C@H](C2)C3c2ccc(-c3cccc(C(=O)N(C)C)c3)cc2)c1` (stereo not given in full) across the screens: u | -2
`O=C(C[C@H]1C[C@H]2c3cc(NC(=O)c4cccnc4)ccc3O[C@H]2[C@H](CO)O1)NCc1cc(F)ccc1F` across the screens: 1 | 12
`O=C(Cc1ccccc1)N1C[C@H]2[C@@H](c3ccccc31)[C@H](CO)N2C(=O)c1ccc(F)cc1` across the screens: 1 | 4
`CCCN(C)C[C@@H]1Oc2ncc(C#Cc3cccc(OC)c3)cc2C(=O)N([C@H](C)CO)C[C@@H]1C` across the screens: -21 | -24
`Cc1noc(C)c1NC(=O)N(C)C[C@H]1Oc2ccc(NS(=O)(=O)c3ccccc3)cc2CC(=O)N([C@@H](C)CO)C[C@H]1C` across the screens: 11 | 4
